A1 inh: caspase 3/7 activation in MEF A1-2A-BIM cells, primary screen, A1 inhibitor project, cell-based, luminescence, HTS; 0.066% of 330,000 active; AID 2462, 2010; Caspase-Glo 3/7 luminescence, 3 h; percent of clofoctol response, vehicle zero; caspase activation, % (no concentration beside the values);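 active = over half of replicate activation scores above 10%, or exactly half above 10 with the replicate mean above 10; inconclusive = replicate mean below 10 yet half the replicates above 10; inactive = over half of replicates below 10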;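 also: wells of about 30 µL received 50 nL stock; many hits fall short of the cut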
RanGTP-Imp inh: inhibitors of RanGTP-importin-beta interaction, primary screen, biochemical, FRET, CFP-Ran, YFP-importin-beta, homogeneous; inhibition, % (no concentration beside the values); cell-free CFP-Ran/YFP-importin-beta FRET ratio; AID 2216, 2009; 1.1% of 300,000 active;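 active = most replicates above 15%; inconclusive = exactly half above 15%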;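 also: 0% = DMSO wells and 100% = Ran loaded with GDP instead of GTP; wells of about 40 µL received 100 nL stock; the first replicate is given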
LANA-H2B inh: blockers of LANA interaction with H2A/H2B – biochemical, FP readout, HTS, primary screen. inhibition, % (no concentration beside the values). Protein LANA1 (Human herpesvirus 8 type P (isolate GK18)), Q9QR71. 0.6% of 320,000 active. cell-free LANA-H2A/H2B peptide, fluorescence polarization; in the data active = inhibition mostly above about 10%, no sharp cut-off; inactive = mostly below about 6.7%;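 also: stock transfer was 7.5 nL into about 10 µL; 0% = median of vehicle wells and 100% = median of positive control wells; one replicate is shown; the record names a cut of 25% in any replicate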
Target sequence (Q9QR71 whole entry, looked up): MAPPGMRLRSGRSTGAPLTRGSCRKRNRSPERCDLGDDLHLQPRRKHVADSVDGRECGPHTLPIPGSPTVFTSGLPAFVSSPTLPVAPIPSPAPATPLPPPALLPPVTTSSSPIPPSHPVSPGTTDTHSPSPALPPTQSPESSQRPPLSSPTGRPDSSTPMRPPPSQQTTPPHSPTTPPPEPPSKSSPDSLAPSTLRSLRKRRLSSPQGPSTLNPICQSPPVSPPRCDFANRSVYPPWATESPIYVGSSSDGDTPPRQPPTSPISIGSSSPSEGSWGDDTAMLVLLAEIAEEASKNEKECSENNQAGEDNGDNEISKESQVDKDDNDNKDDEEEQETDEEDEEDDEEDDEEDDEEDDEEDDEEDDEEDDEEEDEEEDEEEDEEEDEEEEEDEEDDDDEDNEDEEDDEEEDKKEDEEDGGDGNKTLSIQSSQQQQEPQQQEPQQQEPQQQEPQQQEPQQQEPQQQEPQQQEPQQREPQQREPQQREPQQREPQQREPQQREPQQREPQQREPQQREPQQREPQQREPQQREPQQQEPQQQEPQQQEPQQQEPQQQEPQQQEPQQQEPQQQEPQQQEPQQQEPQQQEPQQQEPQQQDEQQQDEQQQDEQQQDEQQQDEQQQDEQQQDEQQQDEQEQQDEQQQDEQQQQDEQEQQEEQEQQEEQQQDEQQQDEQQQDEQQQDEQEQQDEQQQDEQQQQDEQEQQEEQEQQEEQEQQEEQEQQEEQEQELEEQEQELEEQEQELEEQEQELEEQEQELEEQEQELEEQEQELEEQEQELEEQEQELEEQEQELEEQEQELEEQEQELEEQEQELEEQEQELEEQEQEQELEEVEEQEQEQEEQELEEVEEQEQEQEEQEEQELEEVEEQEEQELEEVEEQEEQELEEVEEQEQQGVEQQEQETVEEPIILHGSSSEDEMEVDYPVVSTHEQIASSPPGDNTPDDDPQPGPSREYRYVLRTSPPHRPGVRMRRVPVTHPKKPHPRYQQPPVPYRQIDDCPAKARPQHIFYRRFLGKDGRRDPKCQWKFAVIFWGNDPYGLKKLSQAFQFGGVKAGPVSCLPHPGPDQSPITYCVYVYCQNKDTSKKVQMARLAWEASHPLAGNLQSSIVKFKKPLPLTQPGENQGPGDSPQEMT
Beta apoptosis: inhibitors of cytokine-induced beta cell apoptosis, primary screen, luminescence | INS-1E cytokine-induced death, ATP luminescence, 48 h; percent of positive-control rescue, neutral wells zero | protection from apoptosis, % (concentration not given with the values) | 0.8% of 300,000 active;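 active = all replicates at 75% or more, or half of them and the mean; inconclusive = half reach 75% but not the mean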;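 also: 0% = cytokine-treated negative control wells and 100% = positive control rescue; higher means more ATP so stronger rescue from cytokine killing; wells of about 40 µL received 100 nL stock; the first replicate is given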
UCH37 inh: inhibitors of human UCH37 deubiquitinase, primary screen, biochemical, Ub-AMC cleavage, fluorescence. Ubiquitin carboxyl-terminal hydrolase isozyme L5 (Homo sapiens), Q9Y5K5. purified proteasome/UCH37. inhibition, % (test concentration not listed). 0.33% of 330,000 active. AID 588478, 2011;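 active = mean of two replicates above 20%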;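 also: 0% = compound-free wells with enzyme and 100% = wells lacking proteasome; stock transfer was 100 nL into about 20 µL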
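Schedule: 30 min plus 25 min, room temperature / Material: human UCH37 within purified proteasomes / Technique: AMC fluorescence intensity at 355/460 nm / Buffer or medium: pH 7.4 Tris-HCl (50 mM) with ovalbumin, ATP-MgCl2, DTT / Controls: wells without proteasome as full block, compound-free enzyme plus substrate as uninhibited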
B2AR ag: beta2AR agonists driving receptor internalization, primary screen, cell-based, FAP fluorogen, flow cytometry; Beta-2 adrenergic receptor (Homo sapiens), P07550; Am2.2-beta2AR cells; reference of the scale not given here; response, % (concentration not given with the values); 0.43% of 340,000 active;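 active = response above a set limit, near 3 SD of response in nonfluorescent compounds, cut at about 42% in these data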;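 also: stock transfer was 100 nL into about 11 µL; a reference agonist was the positive control; negative values mostly stem from fluorescent compounds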
T cruzi repl: inhibitors of intracellular T. cruzi growth, primary screen, luminescence, NIH3T3 host cells | T. cruzi beta-gal in NIH3T3, 90 h | AID 1885, 2009 | inhibition, % (concentration not given with the values) | 1.4% of 300,000 active;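 active = mean inhibition across valid replicates above about 55%, limit read from the data; inconclusive = mean below that limit but half or more replicates reach it; inactive = mean below it, under half of replicates reach it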;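 also: signal also drops with host cell toxicity which is not excluded here; 0% = plate median of DMSO wells and 100% = zero luminescence signal; higher percent means less beta-gal luminescence so fewer parasites; stock transfer was 50 nL into about 50 µL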
Calb FLC: C. albicans growth inhibition with fluconazole, primary screen, CaCi-2 strain, Alamar Blue fluorescence. AID 1979, 2009. 0.57% of 300,000 active. growth inhibition, % (concentration not given with the values). C. albicans CaCi-2 (fluconazole-resistant clinical isolate) + fluconazole, 48 h;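 active = most replicates above 75%; inconclusive = exactly half above 75%; inactive = most below 75%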;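 also: all wells also contain fluconazole at 8 µg/ml as a sub-toxic cotreatment; 0% = median of DMSO wells and 100% = median of geldanamycin control wells; wells of about 8 µL received 7.5 nL stock; the first replicate is given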
An asterisk follows results filed as active; u = inconclusive; x = not tested or not shown; + = active, no number. Compounds were not picked by outcome. About 4.3% of those tested had a hit in this group.

SMILES	A1 inh	RanGTP-Imp inh	LANA-H2B inh	Beta apoptosis	UCH37 inh	B2AR ag	T cruzi repl	Calb FLC
CCCc1cc(=O)[nH]c(SCC(=O)N(CCOC)c2c(N)n(Cc3ccccc3)c(=O)[nH]c2=O)n1	0.5	-0.8	x	-0.9	-0.9	-1.4	-5.7	-5.0
CC(=O)Nc1ccc(S(=O)(=O)NC2(C(F)(F)F)NC(=O)N(C3CCCC3)C2=O)cc1 (stereo unspecified)	0.9	-4.3	1.7	0.8	5.4	-3.3	-15.6	28.4
O=C(NCc1ccc(F)cc1)C1CCC(CNc2c(N3CCOCC3)c(=O)c2=O)CC1 (stereo unspecified)	-0.3	1.1	-5.0	1.8	3.5	-1.2	-6.0	-11.6
COCC(C)NC(=O)c1nn(Cc2ccccc2)c(=O)c2ccccc12 (stereo unspecified)	0.3	0.8	0.1	-2.4	1.0	-4.3	3.4	-2.7
O=C(NCc1cccs1)C1CCCN(S(=O)(=O)c2cccs2)C1 (stereo unspecified)	0.2	3.1	-3.3	-6.7	-0.6	-1.5	-8.5	-5.9
Cc1ccc(OCC(=O)Nc2ccc(S(=O)(=O)N3CCCC3)cc2)cc1	-0.9	6.9	1.7	0.2	1.8	1.1	-3.0	-2.7
CCOc1ccc(NCC(=O)c2ccc(C)cc2)cc1	1.1	1.2	1.4	3.3	1.1	2.5	56.7*	-29.6
CCOc1ccc(OCCCC(=O)O)cc1	1.4	-1.7	-0.1	3.2	1.9	0.1	-17.1	-12.8
Cc1nc2c(ccc3c([N+](=O)[O-])cccc32)c(C)c1C	-0.4	-2.9	1.8	6.6	7.5	-4.0	-0.9	2.3
O=C1c2ccccc2S(=O)(=O)N1CC(O)Cn1c2ccccc2c2ccccc21 (stereo unspecified)	0.4	3.5	2.5	3.2	3.4	5.7	4.9	-3.1
CCOC(=O)c1cc2cc3ccccc3cc2oc1=O	0.3	3.3	16.8*	-6.3	0.0	1.8	-3.2	-9.4
Cc1ccc(C)c(S(=O)(=O)Nc2nc(C)c(C(=O)Nc3ccccc3)s2)c1	-0.2	4.8	1.8	-8.5	4.8	11.5	-6.9	1.0
O=C(Nc1cccc(O)c1)N1CCOCC1	-1.7	-2.3	-6.3	-0.4	-5.0	6.0	-2.8	-10.7
C=CCNC(=O)C1=NOC(CNC(=O)c2c(-c3ccccc3Cl)noc2C)C1 (stereo unspecified)	-0.2	3.6	0.2	0.5	4.4	-1.2	-3.0	-11.7
N#Cc1cc(-c2ccccc2)cnc1Cl	0.0	3.7	-1.6	-5.1	-1.4	-7.2	3.4	7.8

(listing goes on)
SMILES	A1 inh	RanGTP-Imp inh	LANA-H2B inh	Beta apoptosis	UCH37 inh	B2AR ag	T cruzi repl	Calb FLC
COc1ccccc1CN1C2CCCC1CC(NC(=O)/C=C/c1ccccc1)C2 (stereo unspecified)	0.1	3.5	-0.2	x	0.6	-14.1	3.4	17.1
FC(F)(F)c1ccc2c(c1)nc1n2CCCC1	-0.3	-2.2	0.2	4.7	4.5	5.3	-7.3	-3.9
Nc1ncc(-c2nnnn2-c2ccc(Cl)cc2)c(-c2ccc(Cl)cc2)n1	2.0	-0.9	-0.3	11.4	1.7	21.2	1.5	6.2
CCOc1ccc(C(=O)NCC(c2ccco2)N2CCc3ccccc3C2)cc1 (stereo unspecified)	1.0	-2.5	0.8	2.0	3.6	0.4	12.3	0.5
CC(=O)Nc1ccc(OCC(O)Cn2cccn2)cc1 (stereo unspecified)	0.1	2.1	-1.6	-0.9	0.3	-0.3	2.2	-5.8
C[C@H](NC(=O)[C@@H]1Cc2ccccc2CN1)C(=O)NC1CCCCC1	0.1	1.8	-3.4	1.0	6.1	-2.0	-9.6	5.3
Clc1ccc2oc(-c3ccccc3)nc2c1	-7.2	1.1	3.0	1.3	0.4	4.7	-9.8	-0.5
CCOc1ccc(Oc2nc(NCC(C)C)nc(N(C)C)n2)nn1	0.0	u	4.1	-0.1	1.4	-3.1	2.8	2.7
Cc1cc(C(=O)N2CCc3ccccc32)n(-c2ccccc2)n1	0.0	-10.2	-0.9	2.0	4.3	-4.7	-15.3	1.4
COc1ccc(OCCC(=O)OCc2c(C)noc2C)cc1	0.5	5.3	3.4	-5.2	1.0	-4.2	-1.4	50.7
CCC(=O)OCc1cc2cccc(C)c2[nH]c1=O	0.4	0.1	-5.3	x	-10.3	5.5	-3.5	0.2
CN1CCCN(C(=O)c2cccc(Cl)c2)CC1	-2.0	2.2	1.6	-5.2	0.2	6.7	9.5	-3.6
CS(=O)(=O)N(CC(=O)N1CCCC1)c1cccc(Cl)c1	-0.4	-2.4	-3.7	x	0.9	-5.2	-5.0	8.2
CCCNC(=O)C1CC(=O)N(c2ccc(OCC)cc2)C1 (stereo unspecified)	-0.4	5.2	4.0	-3.6	0.2	1.8	-11.6	13.6
CCOC(=O)c1cc2ccccc2n1CC(=O)c1ccccc1	0.9	-1.3	-1.9	2.4	0.4	1.8	-2.8	-0.6

Going on with the list.
SMILES	A1 inh	RanGTP-Imp inh	LANA-H2B inh	Beta apoptosis	UCH37 inh	B2AR ag	T cruzi repl	Calb FLC
O=C(COc1ncnc2cc([N+](=O)[O-])ccc12)N(CCc1ccccc1)Cc1ccccc1	0.1	-2.4	0.8	-4.4	4.2	-14.1	54.3	-3.2
COc1cc(C)nc(NC(=S)N(C)C(=O)c2ccccc2)n1	0.6	3.4	-1.0	-4.1	3.2	-5.6	9.6	-1.2
CCn1nnc2cc(C(=O)Nc3cccc(S(=O)(=O)N(C)C)c3)ccc21	-0.2	x	x	-5.4	6.8	1.4	x	x
COc1ccccc1C(=O)Nc1ccnn1C1CCN(C)CC1	0.2	4.8	0.0	2.9	1.0	-1.3	-42.4	-2.4
COc1ccc(-c2csc3ncnc(N4CCN(c5ccccc5OC)CC4)c23)cc1	-0.2	u	-1.6	18.1	1.0	3.9	39.1	-0.2
COc1ccc(N=C2S/C(=C\c3ccc(N4CCOCC4)o3)C(=O)N2CCc2c[nH]c3ccccc23)cc1	0.3	0.1	-2.8	104.7*	12.6	-498.7	56.4*	-5.7
COc1ccc(/C(C)=N/NC(=O)c2nc(C)cc(C)n2)cc1	0.6	6.6	-3.7	-1.5	x	-20.2	-2.8	-2.6
CCOc1ccc(/C(O)=C2\C(=O)C(=O)N(CCOCCO)C2c2ccccc2OC)cc1 (stereo unspecified)	-1.1	-1.3	-2.1	1.7	10.3	1.2	-1.5	-9.6
Cc1ccc(N/N=C/C=C/c2ccco2)cc1	-0.2	2.0	-0.1	x	x	10.9	73.4*	-6.7
COc1ccccc1-c1noc(CCCC(=O)Nc2ccc(C(N)=O)cc2)n1	0.1	-4.2	-11.7	-3.5	1.5	3.4	-2.9	7.5
CCCC(=O)Nc1ccc(S(=O)(=O)N2CCC(c3nc4ccccc4[nH]3)CC2)cc1	0.4	-1.8	-2.7	1.7	0.4	-8.5	4.2	-2.1
Cc1ccc(C23CC4CC(CC(NC(=O)NCCN(C)C)(C4)C2)C3)cc1	1.4	-2.3	-5.8	-1.3	4.8	24.4	59.1*	18.2
CC1CN(CC(=O)Nc2ccc([N+](=O)[O-])cc2Br)CC(C)O1 (stereo unspecified)	0.0	3.4	+	-4.3	-2.2	-2.9	5.0	-5.0
Oc1cc2c(cc1CN1CCN(c3ncccn3)CC1)OCO2	u	-1.8	-11.5	2.8	0.6	-8.7	-27.6	11.9
Cc1ccccc1CNC(=O)Cn1cnc(S(=O)(=O)N2CCCC2)c1	1.4	7.2	1.4	-2.2	4.9	-4.1	-7.9	1.6

Rewritten with each value named: entries from further up.
Structure: Cc1ccccc1CNC(=O)Cn1cnc(S(=O)(=O)N2CCCC2)c1
  A1 inh = 1.4
  RanGTP-Imp inh = 7.2
  LANA-H2B inh = 1.4
  Beta apoptosis = -2.2
  UCH37 inh = 4.9
  B2AR ag = -4.1
  T cruzi repl = -7.9
  Calb FLC = 1.6

Structure: COc1ccccc1-c1noc(CCCC(=O)Nc2ccc(C(N)=O)cc2)n1
  A1 inh = 0.1
  RanGTP-Imp inh = -4.2
  LANA-H2B inh = -11.7
  Beta apoptosis = -3.5
  UCH37 inh = 1.5
  B2AR ag = 3.4
  T cruzi repl = -2.9
  Calb FLC = 7.5

Structure: CCOc1ccc(/C(O)=C2\C(=O)C(=O)N(CCOCCO)C2c2ccccc2OC)cc1 (stereo unspecified)
  A1 inh = -1.1
  RanGTP-Imp inh = -1.3
  LANA-H2B inh = -2.1
  Beta apoptosis = 1.7
  UCH37 inh = 10.3
  B2AR ag = 1.2
  T cruzi repl = -1.5
  Calb FLC = -9.6

Structure: COc1ccc(N=C2S/C(=C\c3ccc(N4CCOCC4)o3)C(=O)N2CCc2c[nH]c3ccccc23)cc1
  A1 inh = 0.3
  RanGTP-Imp inh = 0.1
  LANA-H2B inh = -2.8
  Beta apoptosis = 104.7*
  UCH37 inh = 12.6
  B2AR ag = -498.7
  T cruzi repl = 56.4*
  Calb FLC = -5.7

Next compounds follow:
SMILES	A1 inh	RanGTP-Imp inh	LANA-H2B inh	Beta apoptosis	UCH37 inh	B2AR ag	T cruzi repl	Calb FLC
S=c1[nH]nc(CSCCOc2ccccc2)o1	-0.1	1.6	3.1	-3.1	4.1	3.4	0.0	-4.7
Cc1ccccc1-c1noc(C2CCCCC2)n1	-1.2	-1.8	-0.7	1.1	2.1	5.0	-9.4	2.6
COC(=O)Nc1ccc(S(=O)(=O)N2CCC(C(=O)N3CCCCC3C)CC2)cc1 (stereo unspecified)	-1.0	-3.4	-1.4	4.8	-2.5	-9.6	4.9	-2.2
CC(C)n1nc(C(=O)Nc2nc3ccccc3[nH]2)c2ccccc2c1=O	-0.8	-1.1	7.8	13.6	3.3	3.7	9.3	-9.6
COc1cc(N2C(=O)CC3(CCCC3)CC2=O)cc(OC)c1OC	-0.6	-2.3	3.3	-4.0	1.8	-1.4	1.5	-4.7
CCn1cc(CNCc2cn(C)nc2-c2ccc(C3CCCCC3)cc2)cn1	x	-3.5	x	x	2.0	17.6	26.3	9.6
O=C(COc1ccc2c(c1)OCO2)Nc1ccc2c(c1)oc1ccccc12	2.2	-1.7	0.8	1.4	0.8	2.8	2.3	9.5
CCOC(=O)COn1c(=O)c(-c2ccc(C)cc2)[n+]([O-])c2ccccc21	0.8	0.7	-2.1	-5.2	6.4	19.4	-4.3	-5.1
Cc1ccccc1NC(=O)NC(C)(C)CC(C)(C)C	0.2	-2.0	-2.9	-5.3	-0.7	12.9	-4.1	-3.8
COc1ccc(/C=C2/Sc3ccc(C(=O)N4CCc5ccccc5C4)cc3NC2=O)cc1	0.8	2.8	-3.9	x	2.7	-6.4	0.2	7.1
Cc1[nH]n(-c2ccccc2)c(=O)c1C(C[N+](=O)[O-])c1ccc(Cl)cc1 (stereo unspecified)	-0.2	6.3	x	5.7	41.5*	11.6	6.6	-30.7

Bioassay records deposited in PubChem by several laboratories.
